Source: PubChem
HPGD inh: qHTS Assay for Inhibitors of HPGD (15-Hydroxyprostaglandin Dehydrogenase) | 15-hydroxyprostaglandin dehydrogenase [NAD(+)] (Homo sapiens), P15428 | purified HPGD, NADH fluorescence kinetic, PGE2 substrate | Potency, µM, inactives show at the top dose activity change, negative = inhibition, actives largely listed as inhibitors | actives 4.3% (n = 150,000); active = well fitted inhibition curve with a large enough effect (not every such curve was filed as active); inconclusive = small, poorly fitted or top-dose-only effect, or another doubt; inactive = no such curve, though single readings can be large or run the other way;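 also: top concentration of the series not given in the record; plate controls included wells without enzyme; inactives centre near -10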
Target sequence (P15428 whole entry, looked up): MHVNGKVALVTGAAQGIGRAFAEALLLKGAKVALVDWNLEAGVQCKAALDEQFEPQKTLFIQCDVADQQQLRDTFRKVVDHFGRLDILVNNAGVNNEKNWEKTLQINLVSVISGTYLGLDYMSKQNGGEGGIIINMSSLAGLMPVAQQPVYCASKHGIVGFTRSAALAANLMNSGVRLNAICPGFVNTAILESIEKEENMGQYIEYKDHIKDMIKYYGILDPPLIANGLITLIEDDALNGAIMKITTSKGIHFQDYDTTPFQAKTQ
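20 nM HPGD preincubated 15 min at room temperature with compound in 50 mM Tris-HCl pH 8, 0.01% Tween 20. Started with 1 mM NAD+ and 30 uM prostaglandin E2; NADH fluorescence (360/450 nm) read 5 times over 30-s intervals, last minus first.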
Numbers without * were called inactive; ? = inconclusive; & = joins results of further samples. % is scaled to controls: 0 for no effect and ±100 for the full control effect; potency is read from the fitted curve at half-maximal effect. The list is partial; count on the stated rates, not on these rows.

The first 6 records (preview)
SMILES	HPGD inh
Cc1ccc(N(C(=O)CNC(=O)c2ccco2)C(C(=O)NC2CCCC2)c2cccnc2)cc1C (stereo unspecified)	-9%
O=C(O)c1ccc(Oc2cccc([N+](=O)[O-])c2)cc1C(=O)O	-6%
CCC(C)n1c(=O)c(C(=O)Nc2ccccc2S(N)(=O)=O)c(O)c2ccccc21 (stereo unspecified)	-21%
Cc1ccc2[nH]c(=O)c(N3CCOCC3)c(-c3ccccc3)c2c1	-19%
CCc1nc2ccccc2n1CC(O)COc1ccc(NC(C)=O)cc1 (stereo unspecified)	-13%
O=C(C/C=N/OCc1ccc(Cl)cc1)c1cnc(-c2ccccc2)s1	-11%

Main list, from the first entry:
SMILES	HPGD inh
Cc1ccc(N(C(=O)CNC(=O)c2ccco2)C(C(=O)NC2CCCC2)c2cccnc2)cc1C (stereo unspecified)	-9%
O=C(O)c1ccc(Oc2cccc([N+](=O)[O-])c2)cc1C(=O)O	-6%
CCC(C)n1c(=O)c(C(=O)Nc2ccccc2S(N)(=O)=O)c(O)c2ccccc21 (stereo unspecified)	-21%
Cc1ccc2[nH]c(=O)c(N3CCOCC3)c(-c3ccccc3)c2c1	-19%
CCc1nc2ccccc2n1CC(O)COc1ccc(NC(C)=O)cc1 (stereo unspecified)	-13%
O=C(C/C=N/OCc1ccc(Cl)cc1)c1cnc(-c2ccccc2)s1	-11%
CC(C)(C)OC(=O)N1CCC(C(=O)N[C@@H](Cc2ccccc2)C(=O)O)(c2ccccc2)CC1	-1%
c1ccc(-c2noc(CSc3nnnn3C3CCCCC3)n2)cc1	-23%
CN(C)c1cccc(C(=O)OC(C(=O)Nc2ccc([N+](=O)[O-])cc2Br)c2ccccc2)c1 (stereo unspecified)	-12%
Cc1cccc(NC(=O)CN(C)S(=O)(=O)c2ccccc2)n1	2%
CCn1c(=N)n(CC(=O)c2cccc([N+](=O)[O-])c2)c2ccccc21	-1%
COc1ccc(OC)c(S(=O)(=O)Nc2ccccc2C)c1	-6%
C[Si](C)(C)C#Cc1ccccc1NC(=S)Nc1ccccc1	?
Cc1ccc(C(=O)N/C(=C\c2ccc(C(C)C)cc2)C(=O)NCCCN2CCOCC2)cc1	-7%
CCCCN(C(=O)Cn1nnc2ccccc21)C(C(=O)NCCOC)c1ccccc1 (stereo unspecified)	-16%
Cc1cc(Cl)ccc1N=c1ssnc1Cl	4.5µM*
CCN(CC)C(=O)CN1C(=O)C2(OCC(C)(c3ccccc3)CO2)c2ccccc21 (stereo unspecified)	-10%
COc1cc(OC)nc(N/N=C(\c2ccccc2)c2ccncc2)n1	-11%
CCNC(=S)NC1CC2CCC(C1)N2Cc1ccccc1 (stereo unspecified)	-1%
COc1ccc(S(=O)(=O)N2CCCCC2C(=O)O)cc1OC (stereo unspecified)	-15%

Quoted at random: 2 records from the list.
SMILES	HPGD inh
Cc1ccc(C(=O)N/C(=C\c2ccc(C(C)C)cc2)C(=O)NCCCN2CCOCC2)cc1	-7%
C[Si](C)(C)C#Cc1ccccc1NC(=S)Nc1ccccc1	?

Of the compounds above, 2 have a Cl atom:
SMILES	HPGD inh
O=C(C/C=N/OCc1ccc(Cl)cc1)c1cnc(-c2ccccc2)s1	-11%
Cc1cc(Cl)ccc1N=c1ssnc1Cl	4.5µM*

(more compounds)
SMILES	HPGD inh
CCc1nc(N2CCN(C(=O)c3ccco3)CC2)c2oc3ccccc3c2n1	-8%
Cn1c(SCC(=O)NC(=O)c2cccc([N+](=O)[O-])c2)nnc1-c1ccc(F)cc1	-2%
O=C(NO)c1cc(OCC(F)(F)F)ccc1OCC(F)(F)F	-3%
CC1CC(C)CN(S(=O)(=O)c2ccc(C(=O)N3CCN(c4ccccc4)CC3)cc2)C1 (stereo unspecified)	-14%
CCc1ccccc1NC(=O)CSc1nnc([C@H](CCSC)NC(=O)OC(C)(C)C)o1	-18%
COC(C(=O)NC1CC1)c1ccccc1 (stereo unspecified)	-2%
CCCn1cnc2c(sc3nc4c(cc32)CSC(C)(C)C4)c1=O	-26%
O=C(O)CC(c1ccccc1)n1cnnn1 (stereo unspecified)	-17%
O=C(COc1ccccc1Cl)N1CCN(c2ccc([N+](=O)[O-])c(N3CCCCC3)c2)CC1	-23%
O=C(CCSc1nc(-c2ccco2)cc(C(F)(F)F)n1)NCCc1ccccc1	-13%
Cc1cc(N(C(=O)c2ccco2)C(C(=O)NC2CCCCC2)c2ccccc2)ccc1-n1cnnn1 (stereo unspecified)	-6%
CCN(/N=C/c1ccccc1)c1cc(=O)n(C)c(=O)[nH]1	-15%
O=C(O)CCCc1nc2ccccc2s1	-8%
COc1ccc(CNC(=O)CN(C(=O)c2ccc(CN3CCOCC3)o2)C2CCCC2)cc1	-3%
CC(=O)N1CCc2cc(S(=O)(=O)NC(C(=O)Nc3nc(C)cs3)C(C)C)ccc21 (stereo unspecified)	5%
CCN(CC)c1ccc2cc(-c3nc4ccccc4n3C)c(=O)oc2c1	-23%
O=C(Nc1cccc2ccccc12)c1ccc(Br)o1	-6%
O=C(NNc1cc(N2CCOCC2)nc(N2CCOCC2)n1)C12CC3CC(CC(C3)C1)C2	-1%
COCc1[nH]nc2c1C(c1ccc(OC)c(OC)c1)C(C#N)=C(N)O2 (stereo unspecified)	-11%
Cn1c(=O)c2c(nc(Br)n2CCSc2nnnn2-c2ccccc2)n(C)c1=O	-23%

As entered above.
HPGD inh, CCN(/N=C/c1ccccc1)c1cc(=O)n(C)c(=O)[nH]1 : -15%
HPGD inh, O=C(NO)c1cc(OCC(F)(F)F)ccc1OCC(F)(F)F : -3%

New compounds follow.
SMILES	HPGD inh
COc1cc2c3cc1Oc1c(OC)c(OC)cc4c1[C@@H](Cc1ccc(O)c(c1)Oc1ccc(cc1)C[C@@H]3N(C)CC2)N(C)CC4	-3%
CC(Oc1ccccc1)C(=O)Nc1ccccc1F (stereo unspecified)	-26%
C/C(=N\NC(=O)Cc1cccn1C)c1cccc2ccccc12	?
O=C(c1ccco1)N1CCN(C(=O)C2CC2)CC1	-4%
COc1ccc(S(=O)(=O)N2CN(Cc3ccco3)c3nc4ccccc4nc32)cc1	?
O=C(CSc1nnc(-c2ccccc2)n1-c1ccc(Cl)cc1)NC1CCS(=O)(=O)C1 (stereo unspecified)	1%
Cc1ccnc(NC(=O)c2ccc(NC(=O)c3ccco3)cc2)c1	-20%
CC(C)(C)C(=O)Nc1nnc(SCC(=O)NCc2cccs2)s1	-8%
O=C(/C=C\c1ccc2c(c1)OCO2)Nc1nnc(SCC(=O)OCc2ccccc2)s1	?
O=C(NCc1ccccc1)[C@@H]1C[C@H]1[C@@H](NP(=O)(c1ccccc1)c1ccccc1)c1ccccc1	-1%&-3%
COc1ccccc1N1CCN(C(=O)CN(Cc2ccccc2)S(C)(=O)=O)CC1	10%
COCCN(C(=O)CNC(=O)c1ccco1)C(C(=O)NC1CCCC1)c1cccs1 (stereo unspecified)	-18%
CCOC(=O)N1CCN(c2c(-c3ccc(C)cc3)c(=O)c2=O)CC1	-10%
Cn1c(=O)c2c(nc(OCc3ccccc3)n2C)n(C)c1=O	-1%
CC(=O)NC(C(=O)NCC(N)=O)C(C)C (stereo unspecified)	-5%
O=C(CN1C(=O)CSc2ccccc21)Nc1ccccc1C(=O)N1CCOCC1	-9%
CCOc1ccc(CCNC(=O)C2CCCN(C(=O)N(C)C)C2)cc1OCC (stereo unspecified)	-12%
Cc1ccc2nc(NC(=O)C3CCN(S(=O)(=O)c4cnc[nH]4)CC3)sc2c1	-4%
O=C(CN(c1ccc(F)cc1)S(=O)(=O)c1ccccc1)NCc1ccco1	6%
COc1ccc(-c2nnc(-c3cc4c(ccc5ccccc54)oc3=O)o2)cc1	2%
CCOc1ccc(NC(=S)N(CCc2c(C)[nH]c3ccccc23)Cc2ccco2)cc1	-17%
CCCCS(=O)(=O)C(=C1Nc2ccccc2N1)S(=O)(=O)CCCC	-9%
CCOc1ccc(-n2c(SCC(N)=O)nc3c(c2=O)SCC3)cc1	-12%
COc1cc(C2CC(=O)Oc3ccc(C(C)(C)C)cc32)cc(OC)c1OC (stereo unspecified)	-11%
c1ccc2c(CSCCc3ccncc3)cccc2c1	?
CCOc1cc(NC(=S)NCCCN2CCOCC2)c(OCC)cc1NC(=O)C1CC1	-8%
CC1=Nn2c(nnc2C2CCCCC2)SC1	28µM*
COC(=O)N1CCC2(CCN(Cc3cc(C(F)(F)F)cc(C(F)(F)F)c3)CC2)CC1	-8%
C/C(N)=C(/C#N)C(=O)CSc1nnc(-c2ccc3c(c2)OCO3)o1	-13%
O=S1(=O)CC(NCc2ccccc2)C(Nc2ccc(Cl)cc2)C1 (stereo unspecified)	-10%
Cc1ccc(S(=O)(=O)N2CCOCC2)cc1NC(=O)COC(=O)CNC(=O)c1ccc(C(C)(C)C)cc1	-11%
O=C1c2ccccc2C(=O)N1CCCCSc1nnnn1-c1ccccc1	7.9µM*
COC(=O)c1[nH]c2ccccc2c1NC(=O)CN1CCN(c2cccc(Cl)c2)CC1	?
Cc1ccccc1OCC(=O)N(Cc1ccc(N(C)C)cc1)C1CCS(=O)(=O)C1 (stereo unspecified)	-3%
O=C(c1ccc2c(c1)OCO2)N(c1ccc(F)cc1)C1C=CS(=O)(=O)C1 (stereo unspecified)	-11%
CCCCC(CC)CNC(=O)C1C2C=CC(C2)C1C(=O)O (stereo unspecified)	-6%
CCCCN1C2=C(C(=O)CC(C)(C)C2)C(c2ccccc2)C2=C1c1ccccc1C2=O (stereo unspecified)	-10%
CCN1C(=O)/C(=C2\SC(=S)N(CCCOC)C2=O)c2ccccc21	-3%
Cc1ccc(NCc2nnc(SCCN3CCCCC3)n2CC2CCCO2)c(C)c1 (stereo unspecified)	-14%
COc1cc(C(=O)Nc2nc3ccccc3s2)ccc1OCc1c(C)noc1C	?
NS(=O)(=O)c1ccc2c(c1)C1C=CCC1C(C1CC=CCC1)N2 (stereo unspecified)	-17%
COCCNC(=O)[C@@]1(Cc2ccccc2)C=C[C@@H](C)N1C(=O)OC	-8%
CCOc1ccc(NC(=O)CCNS(=O)(=O)c2ccc3c(c2)c(=O)n(C)c(=O)n3C)cc1	-1%
C#CCNC(=O)/C=C/c1ccc(OC)cc1	-13%
Cn1c(=O)c2c(ncn2CCN(CCO)Cc2ccccc2)n(C)c1=O	-15%
Cc1snc2sc(C(=O)c3ccc(Br)cc3)c(N)c12	-11%
COc1ccc(NC(=O)CN2CCN(CC(=O)Nc3ccccc3F)CC2)cc1OC	-9%
O=C(NCc1ccc(-c2nc3ccccc3s2)cc1)c1ccc(Br)o1	-11%
O=C(N/N=C/c1cc2ccccc2nc1Cl)[C@H]1C[C@@H]1c1ccccc1	15%
CCOC(=O)N1CCN(S(=O)(=O)c2ccc(OC)c(OC)c2)CC1	-12%
Cc1cc(C(=O)O)sc1C	-27%
COc1ccc2c(-c3ccccc3)cc(N3CCOCC3)nc2c1	-25%
COc1ccc(CCN(Cc2cccs2)S(=O)(=O)c2ccc(-n3cnnn3)c(OC)c2)cc1OC	?
C/C(=N\NC(=O)C1CC1)c1cccs1	-2%
CCN1/C(=C2/OC(=S)N(C)C2=O)Sc2ccccc21	-17%
Cc1ccnc2nc(C(=O)N3CCN(c4ccc(F)cc4)CC3)nn12	1%
O=C(Nc1nc2ccccc2[nH]1)C1CC(=O)N(c2ccc3c(c2)OCCO3)C1 (stereo unspecified)	0%
NC(=O)c1cccc(N)c1	?
CN(C)c1ccc(C(=S)N2CCOCC2)cc1Br	-21%
Cc1ccc(S(=O)(=O)c2nc(C)c3c(n2)CCC3)cc1	-14%

(cont.)
SMILES	HPGD inh
CSc1c(-c2ccccc2)nc2ccc(Cl)cc2c1C(=O)O	-12%
Cc1cc(C)cc(NS(=O)(=O)c2ccc(NC(=O)C3CCCCC3C(=O)O)cc2)c1 (stereo unspecified)	0%
COCCNC(=S)N/N=C(\C)c1ccccc1OC	-5%
Cn1c(=O)[nH]c(=O)c2c1nc(N1CCOCC1)n2CC(O)COc1ccc2ccccc2c1 (stereo unspecified)	-28%
c1nnnn1C12CC3CC(CC(C3)C1)C2	-14%
CCOc1ccccc1NC(=O)Nc1cccc(C(C)=O)c1	-15%
CC(NC(=O)c1cccs1)c1nnc(SCc2ccc(Cl)cc2Cl)n1C (stereo unspecified)	-9%
COc1ccc(S(=O)(=O)N2CCN(C(=O)c3cccs3)CC2)cc1OC	-5%
CC(C)(C)c1ccc(OCCNC(=O)c2ncn[nH]2)cc1	-8%
O=c1c2nnn(Cc3ccccc3)c2ncn1C/C=C/c1ccccc1	14µM*
O=C(Nc1ccc2c(c1)OCO2)Nc1ccc(Br)cn1	-3%
O=C(NC1CCCC1)C1CC(=O)N(CCc2ccccc2)C1 (stereo unspecified)	?
Cn1c(CN2CCOCC2)nnc1SCC(=O)NC1CCCCC1	-1%
CC(c1ccccn1)N(CCN(C)C)C(=S)Nc1ccccc1F (stereo unspecified)	-5%
C/C(=N\Nc1nc2ccccc2[nH]1)c1cc2ccccc2o1	-9%
O=C(Nc1ccc(Cl)cc1)N(C1=NCCC1)c1ccc(OC(F)F)cc1	-22%
COC(=O)CCC(=O)OC1(C)C(=O)C2=CN(CC(C)C)C(c3ccc(OC)cc3)=CC2=C(Br)C1=O (stereo unspecified)	-6%
COc1ccc(N2C(=O)C(Cl)=C(Nc3ccccc3OC)C2=O)cc1	-26%
CC(C)C[C@@H](N)c1nnc(SCC(=O)c2ccc(Cl)cc2)o1	-11%
COc1ccc(-c2nc(O)c3cnccn23)cc1	-11%
COC(=O)c1cc(Cl)c(NC(=O)/C=C/c2ccc(OC)c(OC)c2)cc1OC	?
O=C1S/C(=C\c2ccccn2)C(=O)N1Cc1ccccc1F	4%
